Screening data as filed in PubChem BioAssay.
T cruzi inh – inhibitors of intracellular T. cruzi growth, primary screen, luminescence, NIH3T3 host cells. T. cruzi beta-gal in NIH3T3, 90 h. AID 1885, 2009. 1.4% of 300,000 active. inhibition, % (test concentration not listed);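 active = mean inhibition across valid replicates above about 55%, limit read from the data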;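 note: signal also drops with host cell toxicity which is not excluded here; 0% = plate median of DMSO wells and 100% = zero luminescence signal; higher percent means less beta-gal luminescence so fewer parasites; stock transfer was 50 nL into about 50 µL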
Bfl-1 A1 inh – caspase 3/7 activation in MEF A1-2A-BIM cells, primary screen, A1 inhibitor project, cell-based, luminescence, HTS. Caspase-Glo 3/7 luminescence, 3 h; percent of clofoctol response, vehicle zero. caspase activation, % (test concentration not listed). 0.066% of 330,000 active;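 active = over half of replicate activation scores above 10%, or exactly half above 10 with the replicate mean above 10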;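 note: wells of about 30 µL received 50 nL stock; many hits fall short of the cut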
rRNA inh HTS – reduced GFP signal of wild-type E. coli, primary screen, bacterial rRNA inhibitor project, GFP/RFP fluorescence, OD600, single point; AID 720706, 2013; 1.6% of 350,000 active; GFP signal change (wild-type ribosome), % (no concentration beside the values); E. coli WT GFP vs humanized-ribosome RFP mutants, 24 h; stronger effect = lower value; DMSO median 0, no signal -100;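 active = significant combined selectivity score with lowered wild-type GFP, culture density cut under 30%, mutant RFP and density less affected; inactive = any of these conditions unmet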; note: one replicate is shown; some compounds called inactive have numbers as strong as hits
E coli growth – E. coli growth inhibition, primary screen, OD600 | Escherichia coli growth, 23 h; stronger effect = lower value | OD600 absorbance (no concentration beside the values) | 0.21% of 330,000 active | AID 1053175, 2014;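 active = OD600 absorbance below the run mean of sample wells minus 3.6 SD, in any replicate, cut at about 0.56 in these data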;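 note: stock transfer was 300 nL into about 60 µL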
UCH37 DUB inh – inhibitors of human UCH37 deubiquitinase, primary screen, biochemical, Ub-AMC cleavage, fluorescence; Ubiquitin carboxyl-terminal hydrolase isozyme L5 (Homo sapiens), Q9Y5K5; purified proteasome/UCH37; inhibition, % (test concentration not listed); 0.33% of 330,000 active; AID 588478, 2011;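 active = mean of two replicates above 20%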;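 note: 0% = compound-free wells with enzyme and 100% = wells lacking proteasome; stock transfer was 100 nL into about 20 µL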
Target sequence (Q9Y5K5 whole entry, looked up): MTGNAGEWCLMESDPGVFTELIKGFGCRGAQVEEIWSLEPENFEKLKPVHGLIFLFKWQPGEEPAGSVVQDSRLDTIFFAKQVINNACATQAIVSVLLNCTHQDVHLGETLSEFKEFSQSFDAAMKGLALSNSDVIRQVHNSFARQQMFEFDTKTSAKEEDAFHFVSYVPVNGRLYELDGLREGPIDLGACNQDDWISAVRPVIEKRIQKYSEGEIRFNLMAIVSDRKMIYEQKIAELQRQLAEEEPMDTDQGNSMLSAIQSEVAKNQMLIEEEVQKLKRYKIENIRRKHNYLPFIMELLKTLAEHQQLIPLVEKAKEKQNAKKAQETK
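Material: human UCH37 enzyme supplied as purified proteasome complex / Amount: 0.15 nM proteasome as dispensed / Buffer or medium: pH 7.4 Tris-HCl (50 mM) with ovalbumin, ATP-MgCl2, DTT / Times: preincubation 30 min, reaction 25 min, room temperature / Technique: AMC fluorescence from Ub-AMC cleavage, excitation 355 nm, emission 460 nm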
MLL AF4-AF9 inh – inhibitors of AF4 peptide binding to AF9, primary screen, biochemical, AlphaScreen, biotin-AF4 peptide, FLAG-AF9, single point; Protein AF-9 (Homo sapiens), P42568; inhibition, % at 10 µM; 0.47% of 350,000 active; AID 651704, 2012;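 active = every replicate reaching a set inhibition limit, whatever the replicate mean, cut at about 25% in these data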;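 note: 0% = plate neutral control median and 100% = total signal loss; the record names both 10 and 1 µM as test concentration; the first replicate is given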
Target sequence (P42568 whole entry, looked up): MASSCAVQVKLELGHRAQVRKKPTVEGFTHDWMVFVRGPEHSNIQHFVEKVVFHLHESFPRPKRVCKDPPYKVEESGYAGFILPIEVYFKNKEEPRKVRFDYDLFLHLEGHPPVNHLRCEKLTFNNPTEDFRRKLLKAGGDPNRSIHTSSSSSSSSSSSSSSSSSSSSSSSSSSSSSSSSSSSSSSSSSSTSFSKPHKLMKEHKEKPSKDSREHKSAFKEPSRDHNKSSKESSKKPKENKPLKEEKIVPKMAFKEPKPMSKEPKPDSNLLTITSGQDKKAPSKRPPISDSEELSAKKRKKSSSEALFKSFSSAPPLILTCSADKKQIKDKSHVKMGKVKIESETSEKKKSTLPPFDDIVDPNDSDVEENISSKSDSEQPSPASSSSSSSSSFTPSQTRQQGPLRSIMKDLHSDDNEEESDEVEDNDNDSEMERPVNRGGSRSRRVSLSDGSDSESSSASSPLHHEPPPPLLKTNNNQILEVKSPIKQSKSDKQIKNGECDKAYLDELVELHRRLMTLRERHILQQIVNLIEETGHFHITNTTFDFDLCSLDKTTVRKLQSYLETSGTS
FGF22 binding – binders of human FGF22 protein, primary screen, FGF22 synaptogenesis inhibitor project, biophysical, thermal shift, single point; 1.5% of 340,000 active; Fibroblast growth factor 22 (Homo sapiens), Q9HCT0; recombinant FGF22 thermal shift, SYPRO orange fluorescence; percent of sucrose octasulfate shift, DMSO zero; calls only at 9.99 µM;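 active = melting point raised past a set limit in the mean and every replicate; three in four hits are not shown here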
Target sequence (Q9HCT0 whole entry, looked up): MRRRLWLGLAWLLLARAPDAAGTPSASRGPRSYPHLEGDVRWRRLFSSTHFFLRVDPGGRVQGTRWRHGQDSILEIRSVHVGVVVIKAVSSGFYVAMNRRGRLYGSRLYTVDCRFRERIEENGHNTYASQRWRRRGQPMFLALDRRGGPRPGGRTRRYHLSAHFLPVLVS
Beta apoptosis – inhibitors of cytokine-induced beta cell apoptosis, primary screen, luminescence | 0.8% of 300,000 active | protection from apoptosis, % (test concentration not listed) | AID 435005, 2010 | INS-1E cytokine-induced death, ATP luminescence, 48 h; percent of positive-control rescue, neutral wells zero;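 active = all replicates at 75% or more, or half of them and the mean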;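 note: 0% = cytokine-treated negative control wells and 100% = positive control rescue; higher means more ATP so stronger rescue from cytokine killing; wells of about 40 µL received 100 nL stock; the first replicate is given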
rRNA inh HTS OD600 – further read-out of rRNA inh HTS, marked with its call; OD600 change, %; measured here: OD600 growth;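 optical density of the mix in the first replicate; 0 = DMSO median and -100 = no signal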
rRNA inh HTS RFP – second read-out of rRNA inh HTS, no call of its own (marks repeat the call); RFP signal change, %; measured here: RFP humanized mutant strains;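 first replicate; 0 = DMSO median and -100 = no signal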
Starred values were filed as active, the others as inactive; i = inactive; x = not tested or not shown. The list is partial (hit frequency here may not be typical).

SMILES	T cruzi inh	Bfl-1 A1 inh	rRNA inh HTS	rRNA inh HTS OD600	rRNA inh HTS RFP	E coli growth	UCH37 DUB inh	MLL AF4-AF9 inh	FGF22 binding	Beta apoptosis
O=[N+]([O-])c1ccccc1N=Nc1ccc(O)cc1	-11.0	-2.4	-0.8	-2.4	1.0	0.661	7.8	17.1	i	-9.2
CCc1nnc(NC(=O)CCNC(=O)c2ccccc2Cl)s1	-7.3	0.3	22.5	17.2	2.1	0.672	4.3	-1.0	i	-5.9
COc1ccc(CNCC(O)(c2ccccc2)c2ccc(F)cc2)cc1OC (centres undefined)	1.0	-0.1	8.1	3.1	0.5	0.659	6.3	6.5	i	17.5
CC1(c2ccc([N+](=O)[O-])cc2)NC(=O)N(CC(=O)c2ccc3c(c2)OCO3)C1=O (centres undefined)	4.5	0.0	-3.2	7.6	-1.2	0.649	-0.4	-0.4	i	-6.0
Cc1ccc(NC(=O)c2cccc3ccccc23)cc1	-31.6	0.2	21.4	9.7	0.3	0.679	5.9	2.2	i	2.6
Cc1cc(N2C(=O)C(O)=C(C(=O)c3ccco3)C2c2cccc(O)c2)no1 (centres undefined)	-8.4	-0.1	13.3	5.3	1.5	0.647	8.2	-2.7	i	-8.3
COCCCNC(=S)NNC(=O)c1cc(-c2ccncc2)nc2ccccc12	-14.5	0.2	5.5	2.6	5.1	0.689	3.8	-2.0	i	4.1
O=C(OCCN=C1NS(=O)(=O)c2ccccc21)c1ccncc1	-12.9	0.4	x	x	x	0.74	-0.4	x	x	-6.7
Cc1c(NC(=S)NC(=O)c2ccc(COc3ccccc3)cc2)cccc1C(=O)O	-12.3	-1.4	0.0	-7.2	-3.6	0.678	5.4	-1.5	i	0.4
COc1cc(NC(C)CCCN)c2ncccc2c1 (centres undefined)	33.3	-1.9	x	x	x	x	5.1	30.7*	i	121.4*
CCOc1cc(C)ccc1OCc1nnc(SCC(=O)c2cccc([N+](=O)[O-])c2)n1C	1.6	-0.3	-0.6	-11.4	-4.3	0.708	-0.9	6.3	i	-0.3
Cc1ccccc1NC(=O)Nc1nnc(Cc2ccc([N+](=O)[O-])cc2)s1	12.9	0.0	3.3	5.6	-2.3	0.691	4.7	0.6	i	6.0
Cc1cc(=O)[nH]c(SCC(=O)NCCOc2ccccc2)n1	-18.1	-0.1	-0.8	5.9	-1.9	0.668	2.0	2.9	i	1.6
COC(=O)Cc1cccc2c(=O)c3ccccc3oc12	-4.6	0.4	x	x	x	0.654	-11.3	0.1	i	-4.9
CCCCc1ccc(NC(=O)CSc2nnc(CNC(=O)c3ccco3)o2)cc1	-6.1	-0.7	0.1	0.4	-0.8	0.703	-1.8	0.0	i	-5.2
COc1ccc(S(=O)(=O)N2CCC(C(=O)NCCCn3ccnc3)CC2)cc1C	-3.4	-0.3	9.6	12.7	2.0	0.629	0.7	-1.7	i	x
CCOC(=O)C1=C(C)n2c(s/c(=C/c3cccc([N+](=O)[O-])c3)c2=O)=NC1c1ccc(O)c(OC)c1 (centres undefined)	69.9*	0.0	6.8	4.7	-1.9	x	x	9.8	i	19.4
O=C(CSc1nnc(Cn2nnc3ccccc32)o1)N(Cc1ccc(Cl)cc1)c1ccccc1	17.0	-0.2	x	x	x	0.713	5.8	x	x	99.1*
O=C(O)c1sccc1OCc1ccccc1	-9.0	-0.7	10.6	13.1	1.2	0.695	3.6	-1.5	i	-2.9
COc1ccc(S(=O)(=O)N(C)CC(=O)N2CCCCC2)cc1Cl	-11.5	0.8	3.0	-30.1	-1.4	0.717	1.7	x	x	-8.7

Entries of single compounds as entered above. Screens in order: T cruzi inh	Bfl-1 A1 inh	rRNA inh HTS	rRNA inh HTS OD600	rRNA inh HTS RFP	E coli growth	UCH37 DUB inh	MLL AF4-AF9 inh	FGF22 binding	Beta apoptosis
Profile of O=C(OCCN=C1NS(=O)(=O)c2ccccc21)c1ccncc1 → -12.9	0.4	x	x	x	0.74	-0.4	x	x	-6.7
Profile of O=C(CSc1nnc(Cn2nnc3ccccc32)o1)N(Cc1ccc(Cl)cc1)c1ccccc1 → 17.0	-0.2	x	x	x	0.713	5.8	x	x	99.1*
Profile of COc1cc(NC(C)CCCN)c2ncccc2c1 (centres undefined) → 33.3	-1.9	x	x	x	x	5.1	30.7*	i	121.4*
Profile of COCCCNC(=S)NNC(=O)c1cc(-c2ccncc2)nc2ccccc12 → -14.5	0.2	5.5	2.6	5.1	0.689	3.8	-2.0	i	4.1

Next section.
SMILES	T cruzi inh	Bfl-1 A1 inh	rRNA inh HTS	rRNA inh HTS OD600	rRNA inh HTS RFP	E coli growth	UCH37 DUB inh	MLL AF4-AF9 inh	FGF22 binding	Beta apoptosis
COc1ccc(C(=O)C(C)OC(=O)c2sc(C)nc2C)cc1 (centres undefined)	x	0.7	-4.3	-6.5	-0.9	0.688	1.2	-14.5	i	0.5
COc1cccc(-n2nc(C#N)c(Cl)cc2=O)c1	33.0	x	-50.0	-81.7	-14.3	0.677	6.8	-2.2	i	x
Cc1ccc(-n2nnnc2SC(C)C(=O)Nc2ccccc2-c2ccccc2)cc1 (centres undefined)	-7.8	-1.1	-23.0	-26.1	-5.5	0.729	0.1	5.0	i	-1.8
CNC(=O)c1ccccc1NC(=O)c1ccco1	-10.5	-0.3	x	x	x	0.72	-4.5	x	x	1.5
CN1CCN(c2nnc(-c3ccc(F)cc3)c3ccccc23)CC1	3.4	0.6	2.5	7.3	-0.1	0.677	5.3	5.1	i	-5.0
CCCSc1nsc(NC(=O)CC)n1	54.1	0.2	2.4	-0.7	2.8	0.669	0.6	-2.3	x	x
N#CCN1CCN(CC(=O)c2ccc(Br)cc2)CC1	-9.7	2.2	x	x	x	0.667	2.7	2.2	i	-3.1
CCN(CC)S(=O)(=O)c1ccc2oc(C(=O)NCc3ccc(F)cc3)c(C)c2c1	x	-0.3	x	x	x	0.751	-0.6	x	x	17.6
CS(=O)(=O)c1ccc2nc(NC(=O)c3ccco3)sc2c1	-5.2	-5.9	2.9	4.4	1.8	0.67	14.8	-1.5	i	14.4
CCNC(=O)C/C(C)=N/NC(=O)C(=O)Nc1ccc(CC)cc1	-12.3	0.1	18.2	23.8	3.3	x	x	-0.8	i	0.2
CCOC(=O)c1sc(NC(=O)C(CC)Sc2nccn2C)nc1C (centres undefined)	-25.8	-0.1	x	x	x	0.658	0.8	x	x	5.3
CCCc1nc(SCC(=O)N2c3ccccc3CC2C)c2c(C)c(C)sc2n1 (centres undefined)	31.6	0.2	x	x	x	0.75	0.0	x	x	2.5
O=C(NCCC1=CCCCC1)c1ccc2c(=O)n3c(nc2c1)CCCCC3	5.2	0.8	-15.4	-23.0	-1.1	0.699	4.5	-8.5	i	4.8
O=C(NCC1CCCO1)c1cnn2c(C(F)F)cc(C3CC3)nc12 (centres undefined)	-4.4	-0.9	10.1	6.6	-0.2	0.659	-8.3	-0.5	i	-5.3
O=C(c1ccco1)N1CCN(CCOc2ccc(F)cc2)CC1	4.5	-0.1	x	x	x	0.646	6.3	x	x	4.0
Cc1ccc(NC(=O)c2cccc(S(=O)(=O)N3CCN(C)CC3)c2)cc1F	-7.7	0.1	-1.4	3.8	1.8	0.693	0.5	2.0	i	-1.3
CCOC(=O)C1CCN(S(=O)(=O)c2ccc(CC)cc2)CC1	3.5	0.4	x	x	x	0.654	-0.9	x	x	-3.1
CCOC(=O)c1[nH]c2ccccc2c1NC(=O)NC(C)C	7.9	1.7	21.9	7.4	-0.1	0.699	-9.0	-2.6	i	-2.1
O=C(CSc1nc2[nH]ncc2c(=O)[nH]1)c1ccccc1	-27.4	-0.1	4.9	1.5	-1.1	0.714	3.9	-6.2	i	-6.7
CC(C)(C)N(Cc1ccccc1)C(=O)c1cccs1	-20.9	-0.3	5.9	4.1	0.9	0.691	6.7	-1.4	i	x
O=S(=O)(c1ccc(Cl)cc1)N1c2ccccc2Oc2nc3ccccc3nc21	28.2	0.1	x	x	x	0.714	-2.0	x	x	5.5
CCCn1nc(C(=O)Nc2ccc(S(=O)(=O)Nc3nccs3)cc2)c2ccccc2c1=O	-13.0	-0.4	x	x	x	0.73	2.3	x	x	-13.7
COc1cc(OC)cc(C(=O)Nc2ccc(S(=O)(=O)Nc3ncccn3)cc2)c1	-10.6	0.6	1.6	1.2	-2.0	0.655	2.0	-1.4	i	-12.0
CCOC(=O)CN1C(=O)CN(c2ccc(C)cc2)C1=O	8.3	0.8	3.9	1.2	-3.5	0.688	0.5	2.9	i	1.4
CC(=O)NCC(c1cccs1)S(=O)(=O)c1ccc(F)cc1 (centres undefined)	-2.5	0.5	8.4	7.0	-3.3	0.665	2.3	-4.1	i	-3.1
COc1ccc(N(C(=O)Cn2nnc(-c3ccc(F)cc3)n2)C(C)C(=O)NC2CCCC2)cc1OC (centres undefined)	6.2	0.3	3.6	2.0	0.2	0.676	-1.6	-3.1	i	-1.5
COc1ccc2cc(CN(Cc3ccco3)Cc3nnnn3C3CCCCC3)c(=O)[nH]c2c1	2.3	0.7	x	x	x	0.673	-0.1	x	x	-17.6
CS(C)(=O)=NS(=O)(=O)c1ccc(Cl)cc1	-9.5	0.0	x	x	x	0.715	2.2	x	x	-2.3
CSc1ccccc1OCc1cc(C(=O)N(Cc2nccn2C)C(C)C)no1	10.0	0.1	1.7	1.9	-0.7	0.693	4.5	6.3	i	x
Cc1cc(C(=O)N2CCCC(N3CCN(c4ccccc4C)CC3)C2)n(C)n1 (centres undefined)	58.6*	0.2	6.6	6.8	2.2	0.717	-2.9	-0.3	i	-3.2
CCOC(=O)CCCNC(=O)CCNC(=O)c1ccc(OC(C)C)cc1	-6.1	-1.3	x	x	x	0.677	1.0	x	x	x
COC(=O)/C(=C/c1ccc2c(c1)c1ccccc1n2C)NC(=O)c1ccccc1	31.2	-0.3	x	x	x	0.718	-34.8	x	x	-3.7
O=C(O)C1C2CCC(C2)C1C(=O)NCCc1ccc(F)cc1 (centres undefined)	6.3	0.8	13.5	6.6	-0.3	0.683	-2.1	2.0	i	-7.5
CC(C)c1ccc(N(C(=O)c2csnn2)C(C(=O)NC2CCCC2)c2ccncc2)cc1 (centres undefined)	5.0	0.4	1.1	-6.7	0.3	0.66	1.2	-1.0	i	-0.3
Cc1nc2c(C)cccn2c1/C(O)=C1\C(=O)C(=O)N(CCN(C)C)C1c1ccco1 (centres undefined)	-10.1	0.1	2.6	3.9	-0.1	0.622	4.3	-6.3	i	0.6
COc1ccc(CNn2c(C)nc3ccccc3c2=O)cc1	-9.2	0.4	x	x	x	0.695	2.8	x	x	-16.4
Cn1c(/C=C(\C#N)C(N)=S)ccc1-c1ccc(Br)cc1	x	x	-2.7	0.9	7.3	0.711	4.7	3.8	i	x
